Compound activity (PubChem BioAssay)
HPGD block: HPGD (human) dehydrogenase inhibition | 4.3% of 150,000 active | P15428 | Potency, µM, without a hit: at the highest dose activity change, negative = inhibition, hits mostly inhibitors | purified HPGD, NADH fluorescence kinetic, PGE2 substrate; active = well fitted inhibition curve with a large enough effect (not every such curve was filed as active); inconclusive = small, poorly fitted or top-dose-only effect, or another doubt; inactive = no such curve, though single readings can be large or run the other way;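 also: top concentration of the series not given in the record; plate controls included wells without enzyme; inactives centre near -10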
Target sequence (P15428 whole entry, looked up): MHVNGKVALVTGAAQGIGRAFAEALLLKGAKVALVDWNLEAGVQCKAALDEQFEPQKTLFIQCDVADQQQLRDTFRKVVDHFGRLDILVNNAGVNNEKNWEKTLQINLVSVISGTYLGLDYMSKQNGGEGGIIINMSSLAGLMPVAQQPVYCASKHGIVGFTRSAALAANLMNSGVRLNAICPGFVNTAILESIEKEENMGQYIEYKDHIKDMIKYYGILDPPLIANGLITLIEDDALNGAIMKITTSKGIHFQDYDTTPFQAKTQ
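20 nM HPGD preincubated 15 min at room temperature with compound in 50 mM Tris-HCl pH 8, 0.01% Tween 20. Started with 1 mM NAD+ and 30 uM prostaglandin E2; NADH fluorescence (360/450 nm) read 5 times over 30-s intervals, last minus first.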
* = called active by the depositor; ? = inconclusive; & = joins results of further samples. % is scaled to controls: 0 for no effect and ±100 for the full control effect; potency is read from the fitted curve at half-maximal effect. Only part of the results is shown; rates above refer to the full screens.

HPGD block | Compound
2% | CCOC(=O)C1C(=O)CC(C)(O)C(C(=O)OCC)C1c1ccccc1 (configuration not stated)
-1% | COc1ccc(S(=O)(=O)NCCCN2CCOCC2)c2ccccc12
-12% | COc1ccccc1-c1cncnc1Nc1ccc(F)cc1
? | O=c1c(-c2nc3ccccc3s2)cccn1Cc1ccc(Cl)cc1
-3% | OC(COC(c1ccc(Cl)cc1)c1ccc(Cl)cc1)CN1CCCC1 (configuration not stated)
2% | COC(=O)C/C=C/[C@@H](C)[C@H](O)c1ccccc1Br
-6% | CSc1nc2ccccc2n1CC(=O)Nc1c(C)cccc1C
-13% | CCC(C(=O)NC1CCCC1)N(Cc1ccc2c(c1)OCO2)C(=O)c1snc(C(N)=O)c1N (configuration not stated)
-14% | O=C(COc1ccc2ccccc2c1)NNC(=O)Cc1cccc2ccccc12
-4% | CC1=NN(/C(=N\c2nnc(C)s2)Nc2ccc(C(C)(C)C)cc2)[C@H](c2ccc(C)cc2)S1
? | CCOC(=O)c1sc2nc(C)cc(C)c2c1N
-1% | COc1ccc(NC(C)=O)cc1NC(=O)CN1CCN(C(=O)c2ccco2)CC1
-20% | CCOC(=O)c1ccc(Cn2c(-c3ccccc3)nnc2-c2ccccc2)o1
-11% | CC(C)CC(=O)O/N=C1\C(=O)N(c2ccccc2)c2ccccc21
-16% | CC(=O)c1ccc(NC(=O)c2cn(-c3ccccc3)nc2-c2ccncc2)cc1
-10% | O=C(Nc1nnc(-c2ccccc2Cl)o1)c1nc2ccccc2s1
-19% | CCOC(=O)c1cc(C#N)c(SC)nc1-c1ccccc1
-8% | CC(=O)NCc1nc2ccccc2n1Cc1ccccc1F
-15% | COc1cccc(-c2nc(CS(=O)(=O)CC(=O)NCc3ccccc3OC)c(C)o2)c1
-6% | O=C1c2oc3ccccc3c(=O)c2C(c2ccccn2)N1Cc1ccccc1 (configuration not stated)
-4% | O=C(COC(=O)[C@H](Cc1ccccc1)NC(=O)c1cccs1)NC1CC1
? | Cc1ccc(Cn2nnc3c(=O)n(CC(=O)NCc4ccco4)cnc32)cc1
? | CCCCCCc1ccc(-c2ncc(N)cn2)cc1
-5% | [O-][n+]1onc2c3cc(-c4ccccc4)nnc3ccc21
-21% | Cc1cc(NC(=O)c2ccc(F)cc2F)n(-c2nc3ccccc3[nH]2)n1

As a short view, part of the list above.
HPGD block | Compound
-4% | CC1=NN(/C(=N\c2nnc(C)s2)Nc2ccc(C(C)(C)C)cc2)[C@H](c2ccc(C)cc2)S1
? | CCOC(=O)c1sc2nc(C)cc(C)c2c1N
-1% | COc1ccc(NC(C)=O)cc1NC(=O)CN1CCN(C(=O)c2ccco2)CC1
-20% | CCOC(=O)c1ccc(Cn2c(-c3ccccc3)nnc2-c2ccccc2)o1
-11% | CC(C)CC(=O)O/N=C1\C(=O)N(c2ccccc2)c2ccccc21
-16% | CC(=O)c1ccc(NC(=O)c2cn(-c3ccccc3)nc2-c2ccncc2)cc1
-10% | O=C(Nc1nnc(-c2ccccc2Cl)o1)c1nc2ccccc2s1
-19% | CCOC(=O)c1cc(C#N)c(SC)nc1-c1ccccc1
-8% | CC(=O)NCc1nc2ccccc2n1Cc1ccccc1F
-15% | COc1cccc(-c2nc(CS(=O)(=O)CC(=O)NCc3ccccc3OC)c(C)o2)c1
-6% | O=C1c2oc3ccccc3c(=O)c2C(c2ccccn2)N1Cc1ccccc1 (configuration not stated)
-4% | O=C(COC(=O)[C@H](Cc1ccccc1)NC(=O)c1cccs1)NC1CC1
? | Cc1ccc(Cn2nnc3c(=O)n(CC(=O)NCc4ccco4)cnc32)cc1
? | CCCCCCc1ccc(-c2ncc(N)cn2)cc1
-5% | [O-][n+]1onc2c3cc(-c4ccccc4)nnc3ccc21
-21% | Cc1cc(NC(=O)c2ccc(F)cc2F)n(-c2nc3ccccc3[nH]2)n1

The listing continues.
HPGD block | Compound
? | O=C(CSc1ccc2nnc(-c3ccc(Cl)cc3)n2n1)N1CCCc2ccccc21
-8% | O=C1CCCCCCC1Sc1ccccc1[N+](=O)[O-] (configuration not stated)
-6% | CCOC(=O)Nc1ccc(C)cc1NC(=O)OCC
-2% | COc1ccccc1C1(CC(=O)O)CCOC(C)(C)C1 (configuration not stated)
? | CC(C)n1cnc2cc(NCc3ccco3)ccc21
-4% | COc1cc(OC)cc(C(=O)N2CCN(c3ccccc3F)CC2)c1
-15% | COc1cc(C(=S)N2CCOCC2)cc(OC)c1OS(=O)(=O)c1ccc(NC(C)=O)cc1
-6% | Cc1cc([N+](=O)[O-])cc(C)c1OCC(=O)N/N=C/c1ccc(OC(=O)c2ccccc2Br)cc1
-19% | CCOC(=O)c1sc(-n2[nH]c(C)cc2=O)nc1C
-12% | O=C(O)CNS(=O)(=O)c1ccc(Br)s1
? | Cc1ccc(/C=C/C2=Cc3c(sc(NC(=O)CSc4n[nH]c(N)n4)c3C#N)C(C)(C)C2)o1
-6% | CSc1ncccc1C(=O)OCC(=O)NC1CCS(=O)(=O)C1 (configuration not stated)
-7% | CC/C=C1/OC(=O)c2ccccc21
-21% | CC(Sc1cccc[n+]1[O-])C(=O)Nc1cccc(S(=O)(=O)N2CCOCC2)c1 (configuration not stated)
-10% | Cc1ccc(C(C(=O)NC2CCCCC2)N(C(=O)CCCC(=O)Nc2ccccn2)c2ccc3c(c2)OCCO3)cc1 (configuration not stated)
-8% | Cn1ncc(Br)c1C(=O)N/N=C/c1ccc(OS(=O)(=O)c2ccccc2)cc1
13µM* | CC1CCN(c2c(NCc3ccc(C(=O)N4c5ccccc5CC4C)cc3)c(=O)c2=O)CC1 (configuration not stated)
-12% | COC(=O)c1sc2nc(CSc3nc4ccc(C)cc4[nH]3)[nH]c(=O)c2c1C
? | O=C(CNc1ccccc1-c1ccccc1)NCc1ccccc1
? | COC(=O)N/N=C/c1cn(CCCOc2ccccc2)c2ccccc12
-23% | Cc1ccc(C(=O)O/N=C\c2ccc(N3CCOCC3)c([N+](=O)[O-])c2)cc1
-7% | Cc1cccc2nc(CSc3nc4cc([N+](=O)[O-])ccc4s3)cn12
-6% | C=C(C#N)C(=O)OCC
-7% | O=C(O)CCC(=O)Nc1nnc(C(F)(F)F)s1
-1%&-12%&-7%&1%&5% | CN(C)CCC=C1c2ccccc2CCc2ccccc21

Random excerpt: 2 records from the list
HPGD block | Compound
? | COC(=O)N/N=C/c1cn(CCCOc2ccccc2)c2ccccc12
-6% | CSc1ncccc1C(=O)OCC(=O)NC1CCS(=O)(=O)C1 (configuration not stated)

(listing goes on)
HPGD block | Compound
-16% | Cc1sc2ncnc(OCC(=O)NCc3cccs3)c2c1C
-26% | Cc1ccc(C)c(-n2c(Cc3cc(=O)[nH]c(=O)[nH]3)nnc2SCC(=O)NCC2CCCO2)c1 (configuration not stated)
-10% | CC(C)(C)C(=O)NCCn1ccc2ccccc21
-10% | N=c1sccn1CC(=O)Nc1ccccc1Oc1ccccc1
? | O=C1c2ccccc2C(=O)C12OC2c1cccc2ccccc12 (configuration not stated)
-17% | Cc1ccccc1NC(=O)CSc1[nH]c(=O)cc(C)c1C#N
-11% | COc1cc(-c2cn[nH]c2N)cc(OC)c1OC
-2% | S=C(Nc1ccc2c(c1)OCO2)NC1CCN(Cc2ccccc2)CC1
-10% | CCOC(=O)CCCn1c(C)nc(=O)c(-c2ccccc2)c1C
-21% | Cc1n[nH]c(C)c1CCOc1ccc(C(C)C)cc1
-17% | CCCCSc1nsc(NC(C)=O)n1
-22% | CCC(C)c1ccccc1NC(=O)COC(=O)c1ccc2[nH]c3c(c2c1)CCCC3 (configuration not stated)
-5% | CC(=O)NS(=O)(=O)c1ccc(N=NN2CCOCC2)cc1
-8% | CC(=O)c1c(C(C)=O)c(C)n(NC(=O)c2ccc(Cl)cc2)c1C
3.2µM* | CC1CCCC(=C\c2ccccc2)/C1=N/O (configuration not stated)
-15% | O=C(/C=C/c1ccc(O)cc1)c1ccc(NC2=C(N3CCCCC3)C(=O)c3ccccc3C2=O)cc1
? | CCCS(=O)(=O)NCCc1cc2ccc(C)cc2[nH]c1=O
-10% | CC(/C=C/C=C/c1ccccc1)=N/NC(=O)CNc1ccc(C)cc1
-8% | CSCC[C@H](NC(=O)C1CCN(S(=O)(=O)c2ccc(C)cc2)CC1)C(=O)NCc1ccco1
7.9µM* | CCCCCCC(=O)N(O)C1CC(=O)N(c2ccc(C)cc2)C1=O (configuration not stated)
? | Cc1cc(N2CCN(C(=O)c3ccco3)CC2)n2nc(-c3cccc(Cl)c3)cc2n1
25µM* | CC(C)NC(=O)CC(c1ccccc1)c1cc(Br)ccc1O (configuration not stated)
-15% | CCOc1cc(-n2nc(C)c(C#N)c2N)nc(SC)n1
-3% | COc1ccccc1NC(=O)C(=O)NCC1COc2ccccc2O1 (configuration not stated)
-3% | CCOC(=O)c1nn(-c2cccc(Cl)c2)c(C)c1C(C)=O
14µM* | N#C/C(C(=O)N1CCCCC1)=C1/N=C(N)c2ccccc21
-15% | COCCCNC(=O)Cn1c(=O)n(CCCCCC(=O)Nc2ccccc2)c(=O)c2sccc21
-29% | O=C(Nc1cc(C(=O)N2CCCC2)ccc1N1CCCC1)C1CC1
-10% | CCOC(=O)c1cnn(CCOC(=O)C(C)(C)C)c1NC(=O)C(C)(C)C
3% | COc1ccc(Br)cc1CNC(=O)C1CCCN(S(C)(=O)=O)C1 (configuration not stated)
-29% | O=C(NCc1ccccc1Cl)c1cccc(C(F)(F)F)c1
-2% | CCOC(=O)N1CCN(C(=O)c2cc(C)c3c(C)nn(-c4ccccc4)c3n2)CC1
-13% | O=C1CC(N2CCOCC2)C(=O)N1Cc1ccc(N2CCCC2=O)cc1 (configuration not stated)
2% | CC1CCN(C(=O)COC(=O)[C@H](C)NS(=O)(=O)/C=C/c2ccccc2)CC1
35µM* | Cc1c(C(=O)N2CC(C)OC(C)C2)sc2nc(-c3ccc(F)cc3)cn12 (configuration not stated)
-12% | CCCCCCCCCCCCOCCOCCOCCOCCO
-4% | COC(=O)c1cc(Br)c(=O)n(CCN2CCOCC2)c1
-4% | O=C(CCS(=O)(=O)c1ccc(Br)s1)NCc1ccc2c(c1)OCO2
-6% | Cc1cc(C)n(C(=O)CCN2C(=O)c3ccccc3C2=O)n1
-8% | O=c1[nH]c2ccccc2s1
? | Cc1ccc2nc(SCC(=O)NC(=O)NCc3ccco3)[nH]c2c1
? | COc1cc(NC(=O)c2ccc(COc3ccccc3Br)o2)cc(OC)c1OC
? | COc1ccc(NC(=O)C(C)N2c3cccc4cccc(c34)S2(=O)=O)cc1 (configuration not stated)
-22% | CCOc1ccc(CCNC(=O)c2cc3sccc3n2CC)cc1OCC
-11% | CCOC(=O)c1ccc2nc(NC(=O)c3ccco3)sc2c1
-29% | O=C(NC12CC3CC(CC(C3)C1)C2)c1ccc(-c2ccccc2Cl)o1
-5% | Cc1nn(C)c(Oc2cccc(Cl)c2)c1C(=O)Nc1ccc(F)cc1F
? | Fc1ccc2nc(-c3ccccc3)nc(SCc3nnc(-c4ccccc4)o3)c2c1
-3% | O=C1C=CC(=O)N1Nc1ccc(Br)cc1
-22% | Cc1nnc(SC(C)C(=O)Nc2ccc(S(=O)(=O)NC3CCCCC3)cc2)s1 (configuration not stated)

Continued.
HPGD block | Compound
8.9µM* | Cc1nc(-c2ccc(C(=O)N3CCOCC3)cc2)cs1
-22% | CCOC(=O)c1sc(NC(=O)CSc2nc3ccccc3s2)c(C(=O)OCC)c1C
-4% | CC(=O)N1[C@H](C)C=C[C@]1(Cc1ccccc1)C(=O)NCCN1CCOCC1
-5% | CCn1cc(C(=O)N2CCCc3ccccc32)c2cc(OC)c(OC)cc2c1=O
-9% | COc1cccc(N=Nc2c(=O)[nH]n3c(C)cc(C)nc23)c1
1% | CCCCC(=O)NC1(C(F)(F)F)C(=O)N(CC(C)C)C2=C1C(=O)CC(C)(C)C2 (configuration not stated)
-29% | CC(C)OC(=O)c1ccc(COC(=O)c2cccc(-c3nnc(-c4ccccc4)o3)c2)cc1
-3% | CCCCNC(=O)C1CCCN(S(=O)(=O)c2ccc(S(=O)(=O)NCC(C)C)cc2)C1 (configuration not stated)
-4% | CCOc1ccccc1NC(=O)Cc1ccccc1OC
? | CCCc1nn(C)c2c(=O)[nH]c(-c3ccccc3OCC)nc12
? | CCOC(=O)Cc1csc(NC(=O)CSc2nc(C)cc(=O)[nH]2)n1
-2% | NC(=O)c1cccnc1Nc1ccccc1F
1% | O=C(Cn1ncc2c(=O)oc3ccccc3c21)NC1CC1
-16% | CCOC(=O)c1c(-c2ccc(OCC)cc2)csc1NC(=O)CCN1C(=O)c2ccccc2C1=O
-15% | Cc1nc2cc(-c3ccsc3-n3c(C)ccc3C)[nH]n2c(=O)c1Cl
-13% | Cc1ccc(-c2nn3c(C)nnc3s2)cc1NC(=O)CSc1ccc(Cl)cc1
-12% | CCOc1cc(C#N)c(NC(=O)c2cccnc2Cl)cc1OCC
-2% | O=C(NNC(=O)c1ccc2c(c1)OCO2)NC12CC3CC(CC(C3)C1)C2
? | CC1CCCC(C)N1C(=O)CSc1nnc(-c2cccs2)o1 (configuration not stated)
? | Cc1ccccc1N(CC(=O)N/N=C/c1cc(C)n(-c2ccccc2C)c1C)S(C)(=O)=O
? | CCC(=O)N/N=C(\C)CC(=O)Nc1ccc2ccccc2c1
-10% | O=[N+]([O-])c1ccc2c(c1Nc1ccccc1)=NC1(CCCCC1)N=2
-2% | Cc1ccc(S(=O)(=O)N2CC3(C)CN(S(=O)(=O)c4ccc(C)cc4)CC(C)(C2)C3O)cc1 (configuration not stated)
-4% | C[C@]12CCC3c4ccc(O)cc4CCC3C1CCC2OC(=O)CCC1CCCC1 (some centres not stated)
